# RE007 growth inh: less growth of the S. pombe RE007 Vpr strain. S. pombe RE007 Vpr strain, BacTiter-Glo ATP luminescence, 24 h; control for the full effect not named in the record. Potency, µM (top dose mostly 92.2 µM), for inactives: top-dose activity change, negative = less growth. hit rate 0.21% among 360,000. AID 651644; active = well fitted falling curve with a large enough effect; inconclusive = small, poorly fitted or top-dose-only effect; inactive = no such curve, though single readings can be large or run the other way;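 further: on the % scale 0 is the no-effect control and ±100 the full control effect; nearly all actives have a fitted effect of over 50% in size; the assay follows cell death caused by Vpr and the record does not say whether a fall means rescue or toxicity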
#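 Fission yeast RE007 carrying one integrated HIV-1 vpr copy, seeded at OD 0.01 in PMG+AL medium with 23 nL pinned compound. Grown 24 h at 30 degrees; viability read by BacTiter-Glo luminescence after 5 min.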
# Lassa entry inh: Lassa virus entry inhibition | Lassa virus pseudotype entry inhibition, cell reporter; control for the full effect not named in the record | Potency, µM (series often up to 37.9 µM), for inactives: at the highest dose activity change, negative = inhibition, usual class: inhibitors | hit rate 1.2% among 300,000 | AID 540256; active means well fitted inhibition curve with a large enough effect; inconclusive means small, poorly fitted or top-dose-only effect, or effect the other way; inactive means flat fitted curve, though single readings scatter; tested in HEK293 cells; further: on the % scale 0 is the no-effect control and ±100 the full control effect; nearly all actives have a fitted effect of over 50% in size; luciferase read-out
# StopGo reporter: FMDV 2A StopGo reporter, luciferase signal; human cells with a luciferase reporter of 2A StopGo recoding; control for the full effect not named in the record; Potency, µM (highest dose often 57.9 µM), for the others: at the top dose signal change, negative = less light; hit rate 1.2% among 410,000; active = well fitted falling curve with a large enough effect; inconclusive = small, poorly fitted or top-dose-only effect; inactive = no such curve, though single readings can be large or run the other way; tested in HEK293T cells; further: on the % scale 0 is the no-effect control and ±100 the full control effect; nearly all actives have a fitted effect of over 45% in size; luciferase light after 4 h
# Marburg entry inh: inhibitors of Marburg virus binding or cell entry | hit rate 1.8% among 300,000 | AID 540276 | Potency, µM (doses to about 37.8 µM), without a hit: top-dose activity change, negative = inhibition, usual class: inhibitors | Marburg virus pseudotyped entry inhibition, cell reporter; control for the full effect not named in the record; about a third of the inactives were read at about 46 µM; active = well fitted inhibition curve with a large enough effect; inconclusive = small, poorly fitted or top-dose-only effect, or effect the other way; inactive = flat fitted curve, though single readings scatter; tested in HEK293 cells; about a fifth of its hits are not listed in these tables; further: on the % scale 0 is the no-effect control and ±100 the full control effect; luciferase read-out
# NS1 function inh: influenza NS1 inhibition; S. cerevisiae slowed by influenza A NS1, growth recovery by OD600; Potency, µM (top dose mostly 46.1 µM), without a hit: at the top dose activity, positive = more growth; hit rate 0.4% among 270,000; AID 2326; further: actives are rising curves; nearly all actives have a fitted effect of over 50% in size
#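 A cell-based growth assay was used: compounds that relieve NS1-induced slow growth of budding yeast raise OD600. Assay medium was yeast nitrogen base with ammonium sulphate and -URA supplement, pH 6.0, with 2% galactose.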
# SARS PLpro yeast: blocks SARS-CoV papain-like protease in a yeast assay; S. cerevisiae expressing SARS-CoV PLpro, growth rescue; control for the full effect not named in the record; Potency, µM (top dose mostly 32.9 µM), inactives show top-dose activity, positive = growth rescue; hit rate 0.19% among 330,000; AID 485353; further: 0% is about no effect; nearly all actives have a fitted effect of over 55% in size; growth read by luminescence after 48 h
# Cruzain noTriton: cruzain (T. cruzi) inhibition without detergent; purified cruzain, Z-FR-AMC fluorescence, no detergent; Potency, µM, without a hit: max response, negative = inhibition, most hits filed as inhibitors; hit rate 2.3% among 200,000; AID 1476; active means well fitted curve in the direction sought with a large enough effect; inconclusive means small, poorly fitted or top-dose-only effect, or another doubt; inactive means no such curve, though single readings can be large; an effect the other way counts as inactive or inconclusive;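 further: plate controls were enzyme without inhibitor for no effect and buffer without enzyme for full effect; nearly all actives have a fitted effect of over 40% in size; top concentration of the series not given in the record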
# Target sequence (P25779 123-467 limits assumed): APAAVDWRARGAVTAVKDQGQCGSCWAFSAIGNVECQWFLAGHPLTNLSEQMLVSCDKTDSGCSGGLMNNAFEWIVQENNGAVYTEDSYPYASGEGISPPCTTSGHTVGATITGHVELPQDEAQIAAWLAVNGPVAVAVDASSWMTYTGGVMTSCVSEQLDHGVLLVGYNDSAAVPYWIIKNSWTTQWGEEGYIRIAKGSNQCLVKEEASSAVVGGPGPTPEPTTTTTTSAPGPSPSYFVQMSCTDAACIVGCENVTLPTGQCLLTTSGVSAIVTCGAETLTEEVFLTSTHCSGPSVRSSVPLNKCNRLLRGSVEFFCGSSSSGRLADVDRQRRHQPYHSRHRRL
#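 Purified cruzain at 1.5 nM, pre-incubated 15 min with compound at room temperature in 100 mM sodium acetate pH 5.5, 5 mM DTT, 0.00005% Triton X-100. Reaction started with 2 uM Z-FR-AMC; AMC fluorescence increase over 60 s gives rate.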
# Cruzain Triton: blocks cruzain activity in presence of Triton detergent; P25779; purified cruzain, Z-FR-AMC fluorescence, 0.01% Triton; Potency, µM, for the others: max response, negative = inhibition, most hits filed as inhibitors; hit rate 0.43% among 200,000; active means well fitted curve in the direction sought with a large enough effect; inconclusive means small, poorly fitted or top-dose-only effect, or another doubt; inactive means no such curve, though single readings can be large; an effect the other way counts as inactive or inconclusive;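 further: plate controls were neutral wells for no effect and buffer without enzyme for full effect; nearly all actives have a fitted effect of over 40% in size; top concentration of the series not given in the record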
#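 Z-FR-AMC hydrolysis (2 uM substrate) by cruzain (1.5 nM) monitored kinetically at ex 360/em 450 nm after 15 min room-temperature compound exposure; 0.01% Triton X-100, pH 5.5, 5 mM DTT.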
# * marks the source's active call; other numbers are inactive results; u = inconclusive; x = no result given; [ ] = remark or other dose. Unless noted, the call rests on the fitted dose curve; in most records, active means well fitted rising curve with a large enough effect; inconclusive means small, poorly fitted or top-dose-only effect; inactive means no such curve, though single readings can be large or run the other way. Potency means the concentration at half of the fitted maximal effect. Rows are unselected; overall some 4.8% were active at least once.
SMILES,RE007 growth inh,Lassa entry inh,StopGo reporter,Marburg entry inh,NS1 function inh,SARS PLpro yeast,Cruzain noTriton,Cruzain Triton
O=C(N=C1SC2CS(=O)(=O)CC2N1Cc1ccc(Cl)cc1)C1CC1 (stereo not drawn),14%,12%[46.1 µM],-3%,-17%[46.1 µM],4%,1%,x,x
COc1ccccc1NC(=O)Nc1ccc2[nH]c(=O)[nH]c2c1,5%,x,-13%,x,8%,1%,x,x
CN(C)CC(C)(C)CNS(=O)(=O)c1cccc(Cl)c1Cl,0%,u,11%,-5%,1%,2%,3%,3.8%
CCCCCCCOC(=O)C[N+](C)(C)CCOC1CC2CCC1(C)C2(C)C (stereo not drawn),27%,u,35µM*,11µM*,-13%,-64%,6%,-4.3%
Cc1ccc(S(=O)(=O)N2CCN(c3ccc4nnc(-c5ccccc5)n4n3)CC2)cc1,3%,x,7%,x,7%,5%,u,-3.4%
O=C(c1cc2c(s1)-c1ccccc1OC2)N1CCN(c2ccccc2F)CC1,x,x,-7%,u,x,x,-5%,-3.3%
CCN(CC)S(=O)(=O)c1cccc(C(=O)Nc2cc(C)cc(C)c2)c1,4%,12%,28%,17%,2%,0%,12%,-6.7%
COc1cccc(-c2cc(C(=O)Nc3ccncc3)c3ccccc3n2)c1,-5%,-13%,u,u,-2%,-2%,x,x
NC(=O)NC(c1ccccc1)c1ccccc1,7%,-4%,x,8%,-4%,9%,6%,-2.2%
O=C(NCc1ccccc1Cl)c1cnn2cccnc12,22%,-14%,5%,-6%,-61%,-5%,4%,-1.3%
O=C(CCNC(=O)c1ccccc1Cl)NCCC1=CCCCC1,10%,11%,21%,1%,x,2%,x,x
Cc1c(Cl)c([N+](=O)[O-])nn1CC(=O)N1CCN(C23CC4CC(CC(C4)C2)C3)CC1,2%,-28%[46.1 µM],-7%,u,0%,1%,x,x
Cc1ccccc1C(=O)c1cccn1CC(=O)NCCN1CCN(c2cccc(C)c2C)CC1,7%,u,u,u,-5%,-11%,4%,5.6%
c1ccc(-c2ccnc3nc(N4CCN(c5ccccc5)CC4)nn23)cc1,-9%,-7%,-7%,-3%,-16%,-9%,13%,-5.3%
CCN1/C(=C2\C(=O)N(c3ccccc3)N=C2C)C=Cc2cc(C)ccc21,12%,21%,-9%,15%[46.1 µM],10%,8%,5%,-5.7%
O=C(Nc1c2c(nc3ccccc13)CCCC2)c1ccccc1Br,7%,u,-17%,-4%[46.1 µM],4%,-8%,7%,-1.9%
Cc1ccsc1C(=O)N1CCC(CO)(Cc2ccccc2)CC1,14%,-26%[46.1 µM],-22%,u,8%,0%,x,x
CCCn1c(CNc2ccccc2O)nc2ccccc21,-30%,0%,-11%,-1%,-116%,-10%,-1%,-3.8%
CC(C)OP(=O)(OC(C)C)C(NC(=O)c1ccccc1)C(N)=O (stereo not drawn),4%,-4%[46.1 µM],-6%,-3%[46.1 µM],4%,0%,x,x
Cc1cc(C)nc(N/N=C/C2=C(N3CCOCC3)C(=C/c3ccccc3)/CC2)n1,x,u,28µM*,u,u,-21%,u,-18%
CCOc1ccc(Cc2noc3c2C(=O)CC(C)(C)C3)cc1OCC,9%,-12%,-8%,3%[46.1 µM],x,-4%,x,x
Cc1ccn2cc(C(=O)Nc3ccc4c(c3)OCCO4)nc2c1,8%,u,x,u,-65%,-17%,-4%,3.8%
Cc1noc(-c2ccc(-c3noc(-c4ccc(F)cc4)n3)cc2)n1,x,5%[46.1 µM],-8%,x,x,x,5%,0.6%
COC(=O)CC(NC(=O)Nc1ccc(C)cc1)c1cccc([N+](=O)[O-])c1 (stereo not drawn),-6%,-18%,14%,10%,-1%,0%,x,x
O=C(/C=C/c1ccc(Cl)cc1)Nc1ccc(Br)cn1,-17%,-3%,11%,-7%,x,2%,x,x
O=C(Nc1ccc2c(c1)OCCO2)c1cc2sccc2n1Cc1ccccc1,17%,u,u,u,5%,-9%,u,-0.8%
CC(C)CCNC(=O)C(=O)Nc1c2c(nn1-c1ccccc1)CS(=O)(=O)C2,x,u,3%,x,x,x,-19%,1.2%
Cc1ccc(S(=O)(=O)c2c(C)cc(C)[nH]c2=O)cc1,-7%,x,18%,x,4%,2%,x,x
CCOc1nc(Nc2ccc(OC)cc2)nc(OCC)n1,4%,18%,-2%,-3%,-11%,2%,16%,-3.1%
COC(=O)c1cc2c(n1S(=O)(=O)c1ccc(C)cc1)C(=O)C(=O)c1[nH]cc(C(=O)OCc3ccccc3)c1-2,3%,2.8µM*,11µM*,u,x,x,x,x
Cc1ccc(NC(=O)c2ccc(NC(=O)N3CCSc4nc(C)cc(C)c43)cc2)c(Cl)c1,x,u,12%,x,x,x,-6%,-4.8%
Brc1ccc(OCc2nnc3n2CCC3)cc1,15%,x,0%,x,4%,u,5%,0.7%
CC(C)(C)c1ccc(OCc2ccc(C(=O)N3CCOCC3)o2)cc1,10%,7.9µM*,-22%,u,-1%,-2%,x,x
S=C(NCCN1CCOCC1)Nc1ccc(Cl)cc1,0%,-9%,1%,5%,-4%,10%,7%,-2.7%
O=C(Nc1c(Cl)cc(Cl)cc1C(=O)NCc1cccnc1)c1ccc(Cl)cc1Cl,5%,-8%,-14%,-22%,-7%,1%,-1%,0.4%
COc1ccc(-c2cc(OC(=O)c3ccccc3C)c3c(C)oc(C)c3c(=O)c2)cc1,x,u,-4%,u,x,x,0%,-8.1%
COc1ccccc1CNc1cc(C)ccn1,8%,-4%[46.1 µM],-7%,u,-8%,-6%,x,x
CC(C)CN(C(=O)COC(=O)Cc1c[nH]c2ccccc12)c1c(N)n(Cc2ccccc2)c(=O)[nH]c1=O,2%,-21%,-14%,6%,x,2%,x,x
CCn1c(=O)ccc2cc([N+](=O)[O-])ccc21,-7%,20%[46.1 µM],-9%,7%[46.1 µM],2%,1%,x,x
O=C(COc1ccc(/C=N/NC(=O)c2ccncc2)cc1)Nc1ccccc1,6%,22%[46.1 µM],27%,u,-8%,-11%,x,x

# Part of the list above, with each value named.
COc1ccccc1CNc1cc(C)ccn1
  RE007 growth inh = 8%; Lassa entry inh = -4%[46.1 µM]; StopGo reporter = -7%; Marburg entry inh = u; NS1 function inh = -8%; SARS PLpro yeast = -6%; Cruzain noTriton = x; Cruzain Triton = x

O=C(Nc1c(Cl)cc(Cl)cc1C(=O)NCc1cccnc1)c1ccc(Cl)cc1Cl
  RE007 growth inh = 5%; Lassa entry inh = -8%; StopGo reporter = -14%; Marburg entry inh = -22%; NS1 function inh = -7%; SARS PLpro yeast = 1%; Cruzain noTriton = -1%; Cruzain Triton = 0.4%

CC(C)(C)c1ccc(OCc2ccc(C(=O)N3CCOCC3)o2)cc1
  RE007 growth inh = 10%; Lassa entry inh = 7.9µM*; StopGo reporter = -22%; Marburg entry inh = u; NS1 function inh = -1%; SARS PLpro yeast = -2%; Cruzain noTriton = x; Cruzain Triton = x

CC(C)CN(C(=O)COC(=O)Cc1c[nH]c2ccccc12)c1c(N)n(Cc2ccccc2)c(=O)[nH]c1=O
  RE007 growth inh = 2%; Lassa entry inh = -21%; StopGo reporter = -14%; Marburg entry inh = 6%; NS1 function inh = x; SARS PLpro yeast = 2%; Cruzain noTriton = x; Cruzain Triton = x

# Next section
SMILES,RE007 growth inh,Lassa entry inh,StopGo reporter,Marburg entry inh,NS1 function inh,SARS PLpro yeast,Cruzain noTriton,Cruzain Triton
O=C(O)c1ccc2c(c1)C(=O)N(c1ccc(OCc3ccccc3)cc1)C2=O,-19%,x,-9%,x,-3%,1%,x,x
O=c1nc2n(c3c4c(sc13)CCC4)CCC2,1%,10%,10%,6%,-8%,-16%,1%,1.0%
Nc1nc2c3ccccc3nc(C3CC3)n2n1,29%,1%,u,1%,-8%,-5%,-8%,-0.3%
COc1ccccc1-n1nnnc1S(=O)(=O)Cc1ccc(Cl)cc1,4%,u,10µM*,u,0%,-7%,-10%,-3.4%
Cc1ccc(NC(=O)N2CCCC(c3ccccc3)C2)cc1 (stereo not drawn),8%,x,13%,x,-6%,0%,x,x
CC1=C(C(=O)Nc2cccc(F)c2)C(c2ccsc2)C2=C(CC(C)(C)CC2=O)N1 (stereo not drawn),1%,u,14%,u,-6%,-5%,-12%,-5.0%
COc1cc(C(=O)Nc2ccc(C)c(S(=O)(=O)N(C)C)c2)ccc1OCC(=O)N1CCOCC1,3%,-10%,1%,9%,x,0%,x,x
COc1ccc(CN2C(=O)c3cccnc3C2=O)cc1S(=O)(=O)NCc1ccc(C)cc1,-3%,x,-20%,x,9%,17%,x,x
Cc1ccc(CC(=O)Nc2nc3ccccc3s2)cc1,5%,u,27%,u,-25%,-6%,-10%,-11%
COc1ccc(-n2c(C)nc3c(cnn3-c3ccc(F)cc3)c2=O)cc1,x,5%[46.1 µM],u,13%[46.1 µM],x,x,7%,-1.1%
CCCc1cc(NC(=O)CCl)n(-c2ccccc2)n1,-12%,u,u,u,1%,0%,x,x
Cc1ccccc1NC(=O)c1[nH]cnc1C(=O)NN,-10%,11%,2%,11%,6%,0%,x,x
Cc1ccc(-c2onc3ccc(C(=O)O)cc23)cc1,11%,u,u,-3%[46.1 µM],-34%,-2%,x,x
Cn1ccnc1SCC(=O)N(C1CCCCC1)C1CCCCC1,-11%,2%,-21%,9%[46.1 µM],-6%,1%,-3%,3.2%
COC(=O)[C@@H](NC(=O)Nc1ccccc1F)C(C)C,1%,-2%,8%,13%,13%,2%,1%,6.5%
O=C(CCC(=O)c1cccs1)OCC(=O)c1ccccc1,4%,11%,-6%,2%,x,0%,x,x
CC(C)C(NS(=O)(=O)c1ccc2c(c1)C(C)(C)C(=O)N2C)C(=O)NCc1ccc(F)cc1 (stereo not drawn),-3%,x,-1%,x,-12%,1%,x,x
Cc1ccc(CC(CC(=O)O)C(=O)NCc2ccccc2)cc1 (stereo not drawn),1%,4%,1%,13%,4%,-1%,-4%,-2.1%
CCS(=O)(=O)N1CCC(C(=O)Oc2ccccc2Br)CC1,2%,u,-13%,13%,-12%,-9%,x,x

# Screens from PubChem.
